# E coli growth = blocks Escherichia coli growth; OD600, 23 h; stronger effect = lower value; OD600 absorbance (test concentration not listed); 330,000 compounds, 0.21% hits; AID 1053175;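 active = OD600 absorbance below the run mean of sample wells minus 3.6 SD, in any replicate, cut at about 0.56 in these data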;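 also: stock transfer was 300 nL into about 60 µL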
# HNF4A DNA FP = change in binding of human HNF4 alpha to DNA; HNF4a-FITC DNA binding, fluorescence polarization, 1 h; 360,000 compounds, 0.3% hits; activity change, % at 10 µM; P41235; in the data active = activity change above about 30%, passing the limit was not always enough;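 also: controls were the assay level and a saturating level of protein; the project sought stronger binding though the title names inhibitors; some compounds called inactive have numbers as strong as hits; positive values seem to mean higher polarization but the record does not say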
# Target sequence (P41235 whole entry, looked up): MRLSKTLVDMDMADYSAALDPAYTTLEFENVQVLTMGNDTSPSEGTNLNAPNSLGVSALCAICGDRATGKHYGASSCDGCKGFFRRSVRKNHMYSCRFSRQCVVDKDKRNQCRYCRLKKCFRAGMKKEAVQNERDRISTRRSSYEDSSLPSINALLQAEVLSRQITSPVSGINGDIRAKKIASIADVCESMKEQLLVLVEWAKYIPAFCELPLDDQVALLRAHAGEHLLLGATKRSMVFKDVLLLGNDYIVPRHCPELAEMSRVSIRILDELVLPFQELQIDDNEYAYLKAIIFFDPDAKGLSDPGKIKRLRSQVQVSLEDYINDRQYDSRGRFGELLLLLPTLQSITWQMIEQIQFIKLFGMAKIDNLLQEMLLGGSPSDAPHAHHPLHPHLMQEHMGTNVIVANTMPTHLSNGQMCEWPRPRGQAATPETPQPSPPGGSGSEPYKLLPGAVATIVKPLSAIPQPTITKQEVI
# MLL AF4-AF9 inh = MLL-AF4/AF9 protein interaction inhibition; inhibition, % at 10 µM; 350,000 compounds, 0.47% hits; P42568; AID 651704; AlphaScreen, biotin-AF4 peptide binding to FLAG-AF9;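 active = every replicate reaching a set inhibition limit, whatever the replicate mean, cut at about 25% in these data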;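 also: 0% = plate neutral control median and 100% = total signal loss; the record names both 10 and 1 µM as test concentration; the first replicate is given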
# ALR inh = blocks human ALR sulfhydryl oxidase activity; P55789; purified ALR, DTT oxidation, H2O2 HRP-luminol luminescence; inhibition, % (no concentration beside the values); 290,000 compounds, 3.8% hits;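 active = mean and each replicate at 75% or more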;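 also: stock transfer was 7.5 nL into about 7.5 µL; 0% = neutral wells and 100% = wells with inactivated enzyme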
# Target sequence (P55789 whole entry, looked up): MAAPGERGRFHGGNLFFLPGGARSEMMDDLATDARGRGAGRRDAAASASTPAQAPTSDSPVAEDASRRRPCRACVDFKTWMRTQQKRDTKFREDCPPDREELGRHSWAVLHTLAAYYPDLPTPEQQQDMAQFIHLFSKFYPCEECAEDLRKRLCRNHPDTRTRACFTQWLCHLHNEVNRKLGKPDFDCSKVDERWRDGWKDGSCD
# FGF22 binding = binders of recombinant human FGF22 by thermal shift; 340,000 compounds, 1.5% hits; Q9HCT0; SYPRO orange fluorescence; percent of sucrose octasulfate shift, DMSO zero; calls only at 9.99 µM;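 active = melting point raised past a set limit in the mean and every replicate; three in four hits are not shown here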
# Target sequence (Q9HCT0 whole entry, looked up): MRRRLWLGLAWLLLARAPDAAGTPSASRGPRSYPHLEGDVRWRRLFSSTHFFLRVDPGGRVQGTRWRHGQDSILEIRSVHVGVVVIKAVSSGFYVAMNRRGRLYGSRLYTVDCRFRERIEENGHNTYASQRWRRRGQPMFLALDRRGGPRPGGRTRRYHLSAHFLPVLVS
# rRNA inh HTS = inhibitors of bacterial rRNA selective over humanized ribosomes; 350,000 compounds, 1.6% hits; GFP signal change (wild-type ribosome), % (concentration not given with the values); E. coli WT GFP vs humanized-ribosome RFP mutants, fluorescence, 24 h; stronger effect = lower value; DMSO median 0, no signal -100; AID 720706;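 active = significant combined selectivity score with lowered wild-type GFP, culture density cut under 30%, mutant RFP and density less affected; inactive = any of these conditions unmet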; also: one replicate is shown; some compounds called inactive have numbers as strong as hits
# Vif A3G = HIV-1 Vif–A3G interaction blockers – biochemical, TR-FRET, GST-Vif 1-94, biotin-A3G peptide, dose response retest, primary screen (AID 1117319) | TR-FRET GST-Vif / biotin-A3G peptide binding; higher % means a stronger effect; test concentration not given here; strong numbers were not always called active | inhibition, %, or IC50 in µM where a hit was titrated | 260,000 compounds, 0.57% hits;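 active = above the screen mean plus three standard deviations and confirmed in dose response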;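 also: Vif residues 1-94 fused to GST binding biotinylated APOBEC3G peptide 110-148; 0% = full assay without inhibitor and 100% = GST in place of GST-Vif; retest series ran down from 100 µM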
# rRNA inh HTS OD600 = also measured in rRNA inh HTS; calls as there; OD600 change, %; measured here: OD600 growth;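 optical density of the mix in the first replicate; 0 = DMSO median and -100 = no signal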
# rRNA inh HTS RFP = also measured in rRNA inh HTS; calls as there; RFP signal change, %; measured here: RFP humanized mutant strains;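 first replicate; 0 = DMSO median and -100 = no signal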
# * hit, by the source's call; i = inactive; nt = not tested or not shown; & = joins results of further samples.
SMILES,E coli growth,HNF4A DNA FP,MLL AF4-AF9 inh,ALR inh,FGF22 binding,rRNA inh HTS,rRNA inh HTS OD600,rRNA inh HTS RFP,Vif A3G
O=C(Nc1ccccc1F)c1ccccc1C(=O)Nc1ccccc1F,0.64,-2.3,-1.0,-5,i,1,-7,-1.9,nt
Cc1cc(C)cc(C(=O)NCC(=O)OCC(=O)NC2CCCc3ccccc32)c1 (centres undefined),0.64,-0.3,0.8,-7,i,-17,-1,7.3,4%
O=C(CSc1ncc(C(F)(F)F)cc1Cl)N1CCN(S(=O)(=O)c2ccc3ccccc3c2)CC1,0.75,0.6,2.1,-3,i,8,4,0.4,-10%
COC(=O)CC1C(=O)NCCN1C(=O)CSc1nnnn1-c1ccc(OC)cc1 (centres undefined),0.71,0.9,0.6,-17,i,17,8,0.4,8%
Cc1ccc2nc(-c3ccc(NC(=O)COC(=O)c4ccc([N+](=O)[O-])o4)cc3)sc2c1,0.66,0.7,2.0,-22,i,-4,20,-3.6,-6%
Cc1cccc(OCC(=O)O/N=C(\N)c2ccncc2)c1,0.67,-0.9,0.9,-7,i,2,3,1.1,nt
O=c1cc(-c2ccccc2Cl)oc2c(NS(=O)(=O)c3cc(Cl)cc(Cl)c3O)ccc(O)c12,nt,-22,nt,97*,nt,nt,nt,nt,13%
CSCCC(NC(=O)c1ccc(Cl)cc1Cl)C(=O)OC1CCCCC1=O (centres undefined),0.71,-1.8,0.5,-1,i,6,1,-1.8,-6%
COc1ccc(NC(=S)NCc2ccc(S(N)(=O)=O)cc2)cc1OC,0.68,1.5,-0.5,-27,i,12,11,1.7,11%
Cc1cccc(Oc2nc(-c3ccncc3)nc3ccccc23)c1,0.67,-3.5,-2.4,nt,i,-7,-2,0.1,nt
CC[C@]12c3[nH]c4ccccc4c3CCN1C(=O)C(CC(=O)NCCN1CCOCC1)C[C@@H]2C(=O)N1CCN(C(=O)C2CC2)CC1 (some centres undefined),0.69,-0.8,-3.7,3,i,8,10,-3.5,-5%
CC(C)C[C@@H](COCc1ccc(Cl)cc1)N1CCN(C(=O)c2ccc(C(F)(F)F)cc2)CCC1=O,nt,-4.7,-2.7,nt,i,-9,-15,-2.1,nt
CN1CCN(C(=O)c2ccc(CN(c3ccccc3)S(=O)(=O)c3ccccc3)cc2)CC1,0.69,1.2,0.6,1,i,-4,-9,-1.3,-4%
COc1cccc(-c2ccc([C@@H]3[C@H]4CN(S(=O)(=O)c5cccs5)CCCCN4[C@H]3CO)cc2)c1,nt,nt,-5.5,nt,i,-2,-1,-2.8,nt
CCC(=O)Nc1ccc2c(c1)OC[C@H](C)N(Cc1cccnc1)C[C@H](C)[C@@H](OC)CN(C)C2=O,nt,nt,1.0,nt,i,2,2,0.1,nt
CCn1c(O)c(C=NC2CCCC2)sc1=S,0.64,-1.9,nt,16,nt,nt,nt,nt,5%
COc1cccc(OC)c1C(=O)Nc1ccc(S(=O)(=O)N2CCCCC2)cc1,0.63,5.2,0.6,7,i,-1,-10,4.2,1%
COc1ccc(C2c3ccc(O)cc3Oc3ncn(Cc4ccco4)c(=N)c32)cc1OC (centres undefined),0.69,-18,1.6,18,i,-11,-18,1.1,12%
CCCNC(=O)NC(=O)COC(=O)c1oc2ccc(OCC)cc2c1C,0.76,-0.5,nt,1,nt,nt,nt,nt,0%
O=C(C1=C(c2ccccc2)C(=O)c2ccccc2C1=O)c1ccccc1,0.66,3.3,13,nt,i,-55,-74,-21,7%
CCCc1nnc(SCC(=O)N2CCCC(C)C2)n1CCOC (centres undefined),0.62,-2.2,0.2,-4,i,11,9,-1.1,nt
CSc1nc2ccc(NC(=O)c3c(F)cccc3F)cc2s1,0.61,3.7,-0.9,-2,i,nt,nt,nt,9%
CCOC(=O)c1nc(Nc2ccc(C(C)=O)cc2)c2ccccc2n1,0.71,0.6,2.4,-4,i,2,15,2.1,-9%
Cc1nn(-c2ccccc2)c(N)c1C1(O)C(=O)N(C(C)C)c2ccccc21 (centres undefined),0.69,1.2,2.3,nt,i,9,1,0.7,nt
Nc1nc(OCc2ccccc2)c2[nH]cnc2n1,0.64,-0.8,-2.5,1,i,nt,nt,nt,nt

# Further compounds follow:
SMILES,E coli growth,HNF4A DNA FP,MLL AF4-AF9 inh,ALR inh,FGF22 binding,rRNA inh HTS,rRNA inh HTS OD600,rRNA inh HTS RFP,Vif A3G
O=C(COc1ccccc1)Nc1ccc(S(=O)(=O)Nc2ccccn2)cc1,0.7,-2.1,2.3,nt,i,3,11,-3.2,nt
O=C1CC(C2CCCO2)C(=O)N1Cc1ccccc1 (centres undefined),0.7,-0.4,nt,nt,nt,nt,nt,nt,6%
CN1C(=O)c2cc(NC(=O)C3CCC3)ccc2OC[C@H]2O[C@@H](CC(=O)NCc3ccccc3F)CC[C@@H]21,nt,nt,-0.9,nt,i,-3,4,0.0,nt
CC(C)c1cccc(C(C)C)c1NC(=O)COC(=O)c1ccc(OCC(=O)Nc2cccc(C(F)(F)F)c2)cc1,0.67,-1.8,nt,-5,nt,nt,nt,nt,nt
CCN(CC)S(=O)(=O)c1ccc(OC)c(NC(=O)CSc2cc(C)ccc2C)c1,0.71,1.8,-0.9,-8,i,-5,-11,-2.3,11%
CC(C)NC(=O)N1[C@H](C#N)[C@@H](c2ccccc2-c2ccc(F)cc2)[C@@H]1CO,nt,nt,-9.9,nt,i,-4,-18,-1.9,nt
Cc1ccc2nnc(Cl)n2n1,0.74,-0.4,nt,-4,nt,nt,nt,nt,2%
CC(C)CC(c1nnnn1Cc1cccs1)N1CCN(c2nc3ccccc3s2)CC1 (centres undefined),0.7,-2.8,nt,5,nt,nt,nt,nt,11%
Cn1c(-c2ccc3c(c2)OCO3)c(C(=O)O)c(=O)c2ccccc21,0.64,-3.1,2.1,-5,i,6,6,1.1,-13%
CCN(C(=O)COC(=O)CNS(=O)(=O)c1ccccc1)c1ccccc1,0.67,2.2,-0.9,-3,i,10,5,-3.4,nt
Cc1cc(NC(=O)NCc2ccco2)ccc1NC(=O)NCc1ccco1,0.73,1.4,-2.3,nt,i,4,3,5.2,7%
CCOc1cc(C(=O)NC2CCCCCCC2)cc(OCC)c1OCC,0.7,2.6,-7.2,-10,i,6,-2,0.3,nt
Cc1ccc(-c2n[nH]c(=O)c3ccccc23)cc1N,0.7,-5.0,nt,4,nt,nt,nt,nt,-2%
O=C(Cc1ccccc1)NCCN1CCCC1,0.69,0.9,1.2,-3,i,11,6,0.9,1%
COc1ccc(-n2c(SC(C)C(=O)N3CCOCC3)nc3ccccc3c2=O)cc1 (centres undefined),0.72,-4.3,-1.6,-7,i,22,14,6.1,-81%
O=C(NC(Cc1ccccc1)C(=O)O)/C(=C/c1cccc([N+](=O)[O-])c1)NC(=O)c1cccc(Br)c1 (centres undefined),0.66,-3.6,-3.3,98*,i,4,1,1.0,nt
CCOc1ccccc1NC(=O)CN(c1ccc(OC)cc1)S(=O)(=O)c1c(C)[nH]c(=O)[nH]c1=O,nt,5.1,-0.3,-7,i,2,-14,3.5,2%
CCOC(=O)C1=C(C)Nc2ccc(C)cc2S1,0.73,1.3,nt,51,nt,nt,nt,nt,1%
Cc1ccc(S(=O)(=O)c2cnc(-c3ccccc3)nc2N2CCCCC2)cc1,0.73,-2.5,-2.3,nt,i,12,9,-2.5,-6%
CC(=O)N1[C@@H]2c3ccc(-c4cccnc4)c(=O)n3C[C@H]1[C@H](CO)[C@H]2C(=O)NC1Cc2ccccc2C1,nt,nt,-1.2,nt,i,0,10,-0.8,nt
O=C(Nc1ccccc1-c1ccccc1)NC1CCN(C(=O)N2CCOCC2)CC1,0.71,-0.7,nt,-1,nt,nt,nt,nt,15%
COc1cccc(NC(=O)Nc2ccc3c(c2)C(=O)N(C)[C@H]2CC[C@@H](CC(=O)NCCc4ccccc4)O[C@H]2CO3)c1,nt,nt,5.0,nt,i,-9,-14,1.5,nt
CNC[C@@H]1Oc2ccc(NC(=O)Cc3cn(C)c4ccccc34)cc2C(=O)N([C@H](C)CO)C[C@H]1C,nt,nt,3.9,nt,i,-4&5,1&-5,-1.1&0.5,nt
O=C(C[C@@H]1C[C@H]2c3cc(NC(=O)c4ccc5c(c4)OCO5)ccc3O[C@H]2[C@H](CO)O1)NCC1CC1,nt,nt,-1.1,nt,i,-1,-5,-1.9,nt
Cn1c(SCc2ccc3c(c2)OCO3)nnc1-c1ccccc1,0.66,-0.8,nt,-3,nt,nt,nt,nt,1%

# Whole records as entered above.
# Entry for `O=C(Cc1ccccc1)NCCN1CCCC1` → E coli growth: 0.69; HNF4A DNA FP: 0.9; MLL AF4-AF9 inh: 1.2; ALR inh: -3; FGF22 binding: i; rRNA inh HTS: 11; rRNA inh HTS OD600: 6; rRNA inh HTS RFP: 0.9; Vif A3G: 1%
# Entry for `CCN(C(=O)COC(=O)CNS(=O)(=O)c1ccccc1)c1ccccc1` → E coli growth: 0.67; HNF4A DNA FP: 2.2; MLL AF4-AF9 inh: -0.9; ALR inh: -3; FGF22 binding: i; rRNA inh HTS: 10; rRNA inh HTS OD600: 5; rRNA inh HTS RFP: -3.4; Vif A3G: nt

# New compounds follow
SMILES,E coli growth,HNF4A DNA FP,MLL AF4-AF9 inh,ALR inh,FGF22 binding,rRNA inh HTS,rRNA inh HTS OD600,rRNA inh HTS RFP,Vif A3G
COCC(=O)Nc1ccc2c(c1)OC[C@H](C)N(CC1CCCCC1)C[C@@H](C)[C@@H](OC)CN(C)C2=O,nt,nt,5.3,nt,i,3,5,-0.1,nt
CCCCn1c(N)c(N(CCOC)C(=O)c2oc3ccc(OCC)cc3c2C)c(=O)[nH]c1=O,0.71,5.6,-2.0,-1,i,7,-1,0.1,-6%
O=C(C(=O)N1CCC(c2ccccc2)CC1)c1ccc(F)c(F)c1,nt,4.7,-2.1,nt,i,-12,-48,-0.9,nt
c1ccc(-n2c(-c3ccncc3)nnc2-c2cccs2)cc1,0.67,-2.2,nt,nt,nt,nt,nt,nt,0%
C[C@H](O)[C@@H]1C(=O)N2CCc3ccc(N4CCOCC4)cc3[C@@H]2C[C@@H]1N(C)C(=O)C(C)(C)C,nt,3.7,-0.1,nt,i,11,-1,2.3,2%
O=CNNC(=O)c1cccc([N+](=O)[O-])c1,0.7,0.6,-1.7,1,i,7,12,1.8,-7%
COc1ccc(-c2ccccc2[C@@H]2[C@@H](C#N)N(C(=O)C3CCC3)[C@H]2CO)cc1,nt,nt,-0.3,nt,i,3,13,0.6,nt
CC(/C=N/NC(=O)Cc1cc(=O)[nH][nH]1)=C\c1ccccc1,nt,-3.6,nt,11,nt,nt,nt,nt,9%
O=C1NC2(CCCCC2)C(=O)N1CCS(=O)(=O)Oc1ccccc1,0.73,-1.5,nt,-4,nt,nt,nt,nt,5%
O=C(CC1C(=O)NCCN1Cc1ccc(-c2ccccc2)cc1)NC1CCC1 (centres undefined),0.69,-1.5,-1.4,nt,i,3,-10,0.5,2%
CCCCNC(=S)N(C)/N=C/c1c(C)[nH]c2ccccc12,nt,19,nt,-1,nt,nt,nt,nt,-4%
O=C(/C=C/c1ccc(OCCCF)cc1)Nc1ccnc(-c2ccncc2)n1,0.7,3.6,-0.5,nt,i,-2,1,-0.6,-7%
c1ccc(CN2CCN(C(c3ccccc3)c3ccccc3)CC2)cc1,0.65,1.4,6.2,-18,i,-24*,-19*,1.2*,nt
CCOCC(=O)Nc1cccc(Br)c1,0.67,2.1,nt,-1,nt,nt,nt,nt,4%
O=C(COc1ccc(F)cc1Br)NCCCN1CCCC1=O,0.65,0.3,-4.6,-8,i,10,16,0.4,nt
CC(=O)Nc1ccc(S(=O)(=O)NCCCc2ccccc2)cc1,0.63,-1.5,-0.8,33,i,-4,-9,-4.1,nt
COc1ccc(-n2cc([N+](=O)[O-])c(=O)c3ccc(Cl)cc32)cc1,0.61,4.4,-2.1,4,i,5,-1,-1.8,nt

# Assay outcomes (PubChem BioAssay)

# Some of the compounds tested. The share of hits here may be higher or lower than overall.
